Assay outcomes (PubChem BioAssay)
UCH37 DUB inh = inhibitors of human UCH37 deubiquitinase, primary screen, biochemical, Ub-AMC cleavage, fluorescence; purified proteasome/UCH37; inhibition, % (test concentration not listed); 330,000 tested, 0.33% active; AID 588478, 2011;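 active means mean of two replicates above 20%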;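 further: 0% = compound-free wells with enzyme and 100% = wells lacking proteasome; stock transfer was 100 nL into about 20 µL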
Target sequence (Q9Y5K5 whole entry, looked up): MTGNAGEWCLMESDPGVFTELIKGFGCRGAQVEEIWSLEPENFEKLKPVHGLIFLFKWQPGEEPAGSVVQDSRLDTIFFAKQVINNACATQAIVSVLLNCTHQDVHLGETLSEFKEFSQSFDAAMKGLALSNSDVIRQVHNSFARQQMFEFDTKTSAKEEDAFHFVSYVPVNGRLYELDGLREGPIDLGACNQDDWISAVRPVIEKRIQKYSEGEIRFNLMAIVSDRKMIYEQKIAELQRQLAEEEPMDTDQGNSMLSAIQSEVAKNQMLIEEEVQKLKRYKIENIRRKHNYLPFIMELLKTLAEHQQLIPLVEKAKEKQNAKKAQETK
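assay system = human UCH37 enzyme supplied as purified proteasome complex | amount = proteasome at 0.15 nM in the dispensed enzyme solution | schedule = 30 min compound-proteasome preincubation then 25 min substrate reaction, room temperature | measured by = fluorescence, ex 355 nm, em 460 nm | benchmarks = no-proteasome wells (full inhibition) and compound-free wells (no inhibition)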
E coli growth = E. coli growth inhibition, primary screen, OD600. Escherichia coli growth, 23 h; hits give low values. OD600 absorbance (test concentration not listed). 330,000 tested, 0.21% active. AID 1053175, 2014;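 active means OD600 absorbance below the run mean of sample wells minus 3.6 SD, in any replicate, cut at about 0.56 in these data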;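 further: stock transfer was 300 nL into about 60 µL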
HNF4A DNA FP = change in binding of human HNF4A to DNA, primary screen, biochemical, fluorescence polarization, FITC-DNA. 360,000 tested, 0.3% active. activity change, % at 10 µM. Hepatocyte nuclear factor 4-alpha (Homo sapiens), P41235. 1 h; in the data active means activity change above about 30%, passing the limit was not always enough;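 further: controls were the assay level and a saturating level of protein; the project sought stronger binding though the title names inhibitors; some compounds called inactive have numbers as strong as hits; positive values seem to mean higher polarization but the record does not say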
Target sequence (P41235 whole entry, looked up): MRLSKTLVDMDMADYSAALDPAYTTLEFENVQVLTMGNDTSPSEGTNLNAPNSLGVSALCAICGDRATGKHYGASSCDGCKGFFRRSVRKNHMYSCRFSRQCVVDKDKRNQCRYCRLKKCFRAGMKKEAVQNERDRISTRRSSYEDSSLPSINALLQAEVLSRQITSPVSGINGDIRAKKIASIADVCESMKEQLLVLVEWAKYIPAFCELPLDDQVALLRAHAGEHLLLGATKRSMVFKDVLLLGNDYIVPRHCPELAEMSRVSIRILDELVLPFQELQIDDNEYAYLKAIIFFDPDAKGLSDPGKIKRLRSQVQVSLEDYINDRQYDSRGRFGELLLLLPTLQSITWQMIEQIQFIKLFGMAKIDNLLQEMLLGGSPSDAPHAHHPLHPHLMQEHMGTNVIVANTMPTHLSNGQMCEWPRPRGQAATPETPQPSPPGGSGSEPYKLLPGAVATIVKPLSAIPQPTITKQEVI
Beta2AR agonist = beta2AR agonists driving receptor internalization, primary screen, cell-based, FAP fluorogen, flow cytometry; 340,000 tested, 0.43% active; response, % (concentration not given with the values); AID 504454, 2011; Am2.2-beta2AR cells; reference of the scale not given here;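 active means response above a set limit, near 3 SD of response in nonfluorescent compounds, cut at about 42% in these data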;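 further: stock transfer was 100 nL into about 11 µL; a reference agonist was the positive control; negative values mostly stem from fluorescent compounds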
FGF22 binding = binders of human FGF22 protein, primary screen, FGF22 synaptogenesis inhibitor project, biophysical, thermal shift, single point | Fibroblast growth factor 22 (Homo sapiens), Q9HCT0 | recombinant FGF22 thermal shift, SYPRO orange fluorescence; percent of sucrose octasulfate shift, DMSO zero | calls only at 9.99 µM | 340,000 tested, 1.5% active | AID 651658, 2012;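 active means melting point raised past a set limit in the mean and every replicate; three in four hits are not shown here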
ALR H2O2 inh = inhibitors of human ALR sulfhydryl oxidase, primary screen, biochemical, H2O2 detection, HRP-luminol luminescence, single point. purified ALR, DTT oxidation. inhibition, % (concentration not given with the values). 290,000 tested, 3.8% active;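 active means mean and each replicate at 75% or more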;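 further: stock transfer was 7.5 nL into about 7.5 µL; 0% = neutral wells and 100% = wells with inactivated enzyme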
Target sequence (P55789 whole entry, looked up): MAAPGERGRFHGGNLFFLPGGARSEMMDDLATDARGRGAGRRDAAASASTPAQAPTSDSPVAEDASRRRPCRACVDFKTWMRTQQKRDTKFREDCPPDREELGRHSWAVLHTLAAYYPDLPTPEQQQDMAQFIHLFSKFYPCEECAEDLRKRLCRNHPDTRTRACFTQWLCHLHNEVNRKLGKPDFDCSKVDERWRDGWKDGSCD
LANA-H2B inh = blockers of LANA interaction with H2A/H2B – biochemical, FP readout, HTS, primary screen; inhibition, % (no concentration beside the values); cell-free LANA-H2A/H2B peptide, fluorescence polarization; 320,000 tested, 0.6% active; in the data active means inhibition mostly above about 10%, no sharp cut-off; inactive means mostly below about 6.7%;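 further: stock transfer was 7.5 nL into about 10 µL; 0% = median of vehicle wells and 100% = median of positive control wells; one replicate is shown; the record names a cut of 25% in any replicate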
An asterisk follows results filed as active; i = inactive; · = no result given. A portion of the library; rates above refer to the full screens.

The first two records as a preview:
SMILES	UCH37 DUB inh	E coli growth	HNF4A DNA FP	Beta2AR agonist	FGF22 binding	ALR H2O2 inh	LANA-H2B inh
Cc1ccc(SCn2nnc3ccccc3c2=O)c(C)c1	4.4	0.728	-0.2	-14.1	i	·	-0.8
CCOC(=O)NC(NC(=O)OCC)C(=O)c1ccccc1	-1.4	0.675	11.3	8.2	·	4.2	-0.9

The list itself, repeating the preview:
SMILES	UCH37 DUB inh	E coli growth	HNF4A DNA FP	Beta2AR agonist	FGF22 binding	ALR H2O2 inh	LANA-H2B inh
Cc1ccc(SCn2nnc3ccccc3c2=O)c(C)c1	4.4	0.728	-0.2	-14.1	i	·	-0.8
CCOC(=O)NC(NC(=O)OCC)C(=O)c1ccccc1	-1.4	0.675	11.3	8.2	·	4.2	-0.9
COc1ccc(OCCCC(=O)Nc2cc([N+](=O)[O-])ccc2C)cc1	1.0	0.771	1.9	-0.9	·	-4.4	-0.4
Cc1ccc(NC(=O)c2ccc(-n3cccn3)nc2)cc1	-16.1	0.699	-0.5	-8.7	i	2.0	-0.1
COc1cccc(C(=O)NCc2ccc(N3CCN(C(=O)OC(C)(C)C)CC3)cc2)c1	1.3	0.711	0.7	1.9	·	2.0	0.1
CC1CCCCC1NCC#CCOc1ccc(Cl)cc1 (centres undefined)	1.3	0.609	4.2	11.1	i	-3.6	3.3
CC(=O)Nc1cc2c(ccc3ccccc32)oc1=O	i	0.657	-1.7	-5.0	i	-8.0	-4.3
C=CCCC(=O)Nc1nc(C)c(-c2csc(Nc3ccc(Cl)cc3)n2)s1	·	·	-1.8	18.1	i	1.1	3.1
COc1cccc(OC)c1C(=O)NC(=S)NCc1cccnc1	0.7	0.715	2.2	-18.6	i	-5.9	3.1
Cc1oc(-c2cccs2)nc1CN1CCC(CO)(CCOc2ccccc2)CC1	2.4	0.677	-2.1	-0.3	i	·	13.4*
CN(c1ccccc1)S(=O)(=O)c1ccc(NC(=O)c2ccc(-c3ccccc3)cc2)cc1	3.1	0.75	-0.5	8.5	i	-0.9	-1.2
COc1cc(NC(=O)C2COc3ccccc3O2)c(OC)cc1Cl (centres undefined)	4.9	0.729	0.1	0.2	·	1.9	-1.8
Cc1nc2sccc2c(=O)n1N	-1.1	0.594	1.4	-1.2	i	-8.3	2.0
CCC(C)(C)n1nnnc1C(C(C)C)N1CCC(C(N)=O)CC1 (centres undefined)	2.6	0.746	3.5	3.3	·	·	2.5
O=C(CCNS(=O)(=O)c1ccc(F)c(F)c1)NCCN1CCOCC1	-1.0	0.665	3.2	0.8	i	-2.9	0.4
Cc1ccc(C(=O)NCc2ccco2)cc1Br	3.5	0.73	3.8	3.6	·	40.7	0.7
O=C(C1CCCCC1)N1CCc2[nH]c3ccc(F)cc3c2C1	2.9	0.65	0.1	-3.1	i	1.0	0.5
O=C(Nc1cccc(NC(=S)NC(=O)c2cccs2)c1)c1ccccc1	3.0	·	-0.5	-8.9	·	-0.4	-0.6
Cc1nc2ncnn2c(C)c1CCC(=O)N1CC(C)CC(C)C1 (centres undefined)	2.5	0.733	2.6	-1.1	·	·	0.0
Cc1nc(SCC(=O)N2CCc3ccccc32)n[nH]1	-0.2	0.693	-1.0	2.9	·	0.6	5.5
COc1ccc(OCC(=O)Nc2nc3ccc(NC(C)=O)cc3s2)cc1	2.2	0.706	-4.0	-1.4	i	-2.8	-5.4
COC(=O)c1c(NC(C)=O)sc(C(=O)Nc2ccccc2)c1C	-1.3	0.682	1.8	-1.4	·	-7.1	-6.7
Cc1cccc(NC(=O)c2sc(C)nc2C)c1	3.7	0.691	2.2	-8.4	·	-9.1	3.6
O=[N+]([O-])c1ccc(OCCCCN2CCCCC2)cc1	3.5	0.655	0.9	-5.5	·	-4.9	0.0
COc1ccc(C=NNC(=O)c2cc(C)oc2C)cc1O	4.8	0.635	-1.3	-1.5	i	98.9*	2.7
Further results.
SMILES	UCH37 DUB inh	E coli growth	HNF4A DNA FP	Beta2AR agonist	FGF22 binding	ALR H2O2 inh	LANA-H2B inh
O=C1N=C(N2CCOCC2)S/C1=C\c1ccc(-c2ccccc2Cl)o1	-1.8	0.671	-40.5	7.8	i	·	·
COc1ccc(C)cc1S(=O)(=O)N(CC(=O)NCc1ccco1)c1ccc(C)cc1	0.8	0.723	1.5	-3.5	i	0.4	1.2
COCC(=O)N(CCc1ccccc1)Cc1cc2cc(C)ccc2nc1Cl	3.0	0.662	1.3	-1.9	i	0.3	-3.6
COc1ccc(-c2nc3c(c(=O)c4ccccc4n3C)c(=O)n2Cc2ccccc2)cc1	3.4	0.728	3.8	-15.6	i	-8.9	-5.0
Cn1c(=O)c2c(nc(NCc3ccccc3)n2C)n(C)c1=O	1.5	0.724	-0.8	-5.5	·	2.6	2.0
CC(C)CNC(=S)NC1CCCC1	1.5	0.669	2.4	1.0	·	0.4	-2.7
COc1ccc(NC(=O)CSc2nc3c(sc4ccccc43)c(=O)n2CCCN2CCCC2)cc1	-1.4	0.654	4.8	25.0	·	99.0*	7.3
COC(=O)c1ccc([C@@H]2C[C@H]3CN(Cc4cccnc4)C(=O)[C@]34CCCN24)cc1	2.1	0.655	0.9	5.4	i	-7.6	2.4
COc1ccc(C(=O)ON=C2C=C(C)C(=O)C(C)=C2)cc1	0.6	0.703	-0.3	16.6	·	8.0	1.9
COc1ccccc1C(=O)COC(=O)c1cccs1	-1.0	0.671	1.9	0.8	i	1.7	2.0
COCCCNC(=O)c1cc(-c2cccnc2)nc2ccc(S(=O)(=O)N3CCCCCC3)cc12	0.4	0.67	-1.0	17.3	i	2.2	14.6
CCCNC(=O)CN1C(=O)COc2ccc(S(=O)(=O)N3CCCCCC3)cc21	-1.3	0.636	0.3	2.0	i	-16.9	·
Cc1nc2ccccc2c(C)c1C(=O)c1ccc(F)cc1	5.2	0.707	0.6	1.9	i	-3.3	-1.3
CCn1c(-c2ccc([N+](=O)[O-])cc2)n[nH]c1=S	4.1	0.704	-4.5	2.2	·	-9.1	1.0
CN(C)S(=O)(=O)c1ccc(N2CCCC2)c(C(=O)Nc2ccccc2Br)c1	4.5	0.66	3.2	-2.4	i	-6.1	-3.4
C[C@@H](C(=O)OCC(=O)c1ccccc1)N1C(=O)C2CCCCC2C1=O (some centres undefined)	1.6	0.652	-0.7	-3.0	i	0.3	-2.2
OCCC1CN(Cc2cccn2-c2ccccn2)CCN1Cc1ccccc1 (centres undefined)	0.9	0.692	0.3	-3.0	i	-1.5	4.0
Cc1c(C(=O)NCC2CCCO2)sc2nc(-c3ccc(F)cc3)cn12 (centres undefined)	1.3	0.724	0.8	-8.4	i	-10.1	1.4
Cc1cc(O)c(C(C)C)cc1N=Cc1ccc([N+](=O)[O-])cc1	7.3	0.684	3.0	-1.2	i	·	·
O=C(O)c1cc(-c2ccc(Cl)cc2)n(-c2ccc(F)cc2)n1	1.7	0.675	3.4	13.5	i	5.0	-0.3
COc1ccc(C(CNC(=O)COc2ccc(Cl)c(C)c2)N2CCCCC2)cc1 (centres undefined)	1.9	0.725	0.5	2.0	i	-31.0	·
CCOC(=O)N1CCN(C(=O)CN(c2cccc(OC)c2)S(C)(=O)=O)CC1	-1.3	0.68	0.6	5.0	·	-61.8	-0.7
COc1ccccc1CN1CC(C(=O)NCCN2CCOC2=O)CCC1=O (centres undefined)	1.0	0.713	-0.4	0.5	i	-12.4	1.2
COc1ccc(/C=N/n2c(-c3cc(C)[nH]n3)n[nH]c2=S)cc1	·	·	-4.3	4.3	i	·	0.6
CNS(=O)(=O)c1c(C)cc(C)c(N(C)S(=O)(=O)c2ccccc2)c1C	2.1	0.658	1.7	-3.4	i	-10.5	2.0
Next section
SMILES	UCH37 DUB inh	E coli growth	HNF4A DNA FP	Beta2AR agonist	FGF22 binding	ALR H2O2 inh	LANA-H2B inh
COc1ccc2[nH]cc(C(=O)CN3CCCC(C)C3)c2c1 (centres undefined)	1.2	0.698	0.4	2.9	·	-6.9	2.7
CCC(=O)N1CCCc2cc(S(=O)(=O)NCc3cccs3)ccc21	0.1	0.676	-0.3	8.5	·	·	-1.4
CCCC(=O)NCCc1nc2cc([N+](=O)[O-])ccc2n1C	4.5	0.676	0.4	-1.5	i	-5.0	4.1
Cc1cc(C)nc(NC(=O)Nc2ccc(F)cc2F)n1	1.0	0.706	0.8	-13.6	i	-12.8	-3.0
CN(C)c1nc(SCC(=O)Nc2ccc(Cl)c(Cl)c2)nc(N2CCOCC2)n1	0.5	0.705	-3.7	2.5	·	0.8	6.4
Cc1ccc(N(CC(=O)NC2CCCC2)C(=O)CCC(=O)Nc2ccccn2)cc1C	5.9	0.657	-0.3	-1.9	i	1.0	1.1
COc1ccc(CCNC(=O)C2CCCN(S(=O)(=O)c3cccc4nonc34)C2)cc1OC (centres undefined)	3.0	0.702	-1.9	-7.2	·	-2.7	2.8
Cc1nn(-c2ccccc2)c2[nH]c(=O)cc(C(F)(F)F)c12	4.8	0.63	-0.3	2.1	·	-13.1	-0.9
COc1c(O)ccc(/C=N\NC(=O)c2ccc3c(c2)OCO3)c1[N+](=O)[O-]	·	·	0.9	-1.6	i	6.6	-8.1
Cc1nn(C)c(C(=O)Nc2ccn(Cc3ccccc3F)n2)c1[N+](=O)[O-]	2.5	0.711	-1.7	-4.5	·	-1.8	-1.3
C=C(C)COc1ccc2c(C)c(CCC(=O)N3C[C@H]4C[C@@H](C3)c3cccc(=O)n3C4)c(=O)oc2c1	-83.0	0.675	4.9	-26.1	i	·	2.9
COc1ccc(S(=O)(=O)Cc2ccc(C(=O)N3CCN(c4ccccn4)CC3)o2)cc1	4.9	0.728	2.7	-13.7	·	-27.1	-0.6
CC(=O)Nc1ccc(S(=O)(=O)NC(C)CCc2ccccc2)cc1 (centres undefined)	5.5	0.689	0.1	-5.6	i	20.9	10.8
Cn1c(O)c(N=Nc2nc(-c3ccccc3)cs2)c2ccccc21	0.3	0.736	0.4	-0.7	·	-31.2	-15.4
CCOc1ccc(S(=O)(=O)N2CCOCC2)cc1NC(=O)CSCC(=O)Nc1ccc(C)cc1	3.5	0.725	-2.1	3.8	i	5.5	-3.3
CC(=O)N1CCc2c(sc(NC(=O)CN3C(=O)c4ccccc4C3=O)c2C(N)=O)C1	9.4	0.731	4.0	6.1	i	-214.2	-0.9
COc1ccc(-c2nc3ccccc3c(=O)n2NC(=O)c2cccnc2Cl)cc1OC	1.7	0.711	0.9	-1.7	i	-3.7	0.6
CCc1sc(C(=O)N2CCN(C(=O)c3ccccc3)CC2)cc1C	1.1	0.695	1.2	5.4	i	·	-7.0
O=C(CSc1nc2ccccc2c(=O)n1-c1ccc(F)cc1)Nc1ccc(Cl)c(S(=O)(=O)N2CCOCC2)c1	-4.0	0.717	-1.1	17.4	i	-6.6	-3.2
C/C(=N\Nc1ccc(F)cc1)c1ccc(N2CCOCC2)c(F)c1	·	·	3.7	0.9	i	4.5	-15.2
O=C(N/N=C/c1cc2ccccc2nc1Cl)c1ccncc1	·	·	-1.7	-2.8	·	0.3	6.2
COc1cc(/C=C(\C#N)C(=O)N2CCOCC2)cc(Br)c1O	7.6	0.679	5.3	3.3	i	47.3	2.2
COc1ccc(S(=O)(=O)NN(C)c2nc(C(F)(F)F)nc3ccccc23)cc1	4.4	0.702	0.4	-3.8	i	-7.9	-1.8
Fc1ccc(CNC(=S)Nc2cccc(Cl)c2)cc1	4.8	0.585	2.8	-1.0	·	·	1.6
COc1ccc(NC(=O)NC(C)c2ccccc2)cc1 (centres undefined)	-1.6	0.727	-4.1	2.1	i	-7.1	3.3
O=C(c1cc(-c2ccncc2)nc2ccccc12)N1CCN(c2ncccn2)CC1	3.6	0.688	0.5	9.2	i	-2.5	-3.3
CCOc1cc(/C=N\NC(=O)c2ccc(C)nc2)cc([N+](=O)[O-])c1O	·	·	6.7	-2.0	i	-1.7	-6.2
Clc1ccc2c(NNc3ccccc3Cl)ccnc2c1	5.1	0.641	-1.7	3.1	·	-0.2	4.2
CC(C)(CNC(=O)c1ccc(Br)o1)CNC(=O)c1ccc(Br)o1	0.3	0.697	0.0	1.2	i	·	·
